Screens from PubChem.
AID923: qHTS Assay for Allosteric/Competitive Inhibitors of Caspase-1: Spectroscopic Profiling in AFC Spectral Region; Potency, µM (highest dose often 57.5 µM), for inactives: at the highest dose fluorescence increase, actives largely listed as activators; 1.1% of 75,000 active; compound fluorescence, AFC spectral region (405/520 nm); almost no hit is shown here; active means well fitted activation curve with a large enough effect; inconclusive means small, poorly fitted or top-dose-only effect;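 further: potency means the concentration at half of the fitted maximal effect; 0% is about no effect; scaled to a free AFC standard on each plate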
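Compound autofluorescence profiled at 405 nm ex/520 nm em during kinetic caspase 1 run (50 nM enzyme, 5 uM Ac-WEHD-AFC, HEPES pH 7.5, 10 mM DTT). Titration up to 57 uM; baseline from regression intercept, normalized to AFC standard curve.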
Resorufin autofl: compound fluoresces in the resorufin spectral region. 0.04% of 59,000 active. Compound fluorescence, resorufin region 547/598 nm, buffer; stronger effect = higher value. max dye-equivalent concentration, M; active = above 10 nM dye equivalent; inconclusive = 1 to 10 nM; inactive = 1 nM or less; a few of its hits are not listed in these tables; further: highest value over a series up to 38 µM
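Read-out: intrinsic compound fluorescence at ex 547/em 598 nm after 15 min at RT in pH 8.0 Tris (100 mM). Values expressed as resorufin-equivalent concentration from per-plate standard series.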
A647 autofl: A647 region autofluorescence. Compound fluorescence, A647 channel (570/671 nm), Tris buffer. max dye-equivalent concentration, M. 59,000 tested, under 10 active. AID 592; active means above 1 µM dye equivalent; inconclusive means 0.1 to 1 µM; inactive means 0.1 µM or less;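 further: values scaled relative to a standard on each plate; highest value over a series up to 38 µM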
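Tris 100 mM pH 8.0; cpd + A647 stds pin-transferred; 15 min RT; CCD imager, ex 570/em 671. Output = A647-equivalent conc. per cpd conc.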
TSHR ag: TSH receptor (human) agonism | AID 926 | P16473 | 0.48% of 73,000 active | HEK293-CNG-TSHR cells (CNG channel as cAMP sensor), membrane potential dye, cAMP | Potency, µM (highest dose often 57.1 µM), without a hit: at the top dose activation, actives largely listed as activators; active = well fitted activation curve of enough size with the parental cells flat; inconclusive = any curve in the parental cells; inactive = parental cells flat and receptor cells flat or falling; further: potency means the concentration at half of the fitted maximal effect; % of control where 0% means no effect; weak receptor curves with flat parental cells got no call and are not listed
Target sequence (P16473 whole entry, looked up): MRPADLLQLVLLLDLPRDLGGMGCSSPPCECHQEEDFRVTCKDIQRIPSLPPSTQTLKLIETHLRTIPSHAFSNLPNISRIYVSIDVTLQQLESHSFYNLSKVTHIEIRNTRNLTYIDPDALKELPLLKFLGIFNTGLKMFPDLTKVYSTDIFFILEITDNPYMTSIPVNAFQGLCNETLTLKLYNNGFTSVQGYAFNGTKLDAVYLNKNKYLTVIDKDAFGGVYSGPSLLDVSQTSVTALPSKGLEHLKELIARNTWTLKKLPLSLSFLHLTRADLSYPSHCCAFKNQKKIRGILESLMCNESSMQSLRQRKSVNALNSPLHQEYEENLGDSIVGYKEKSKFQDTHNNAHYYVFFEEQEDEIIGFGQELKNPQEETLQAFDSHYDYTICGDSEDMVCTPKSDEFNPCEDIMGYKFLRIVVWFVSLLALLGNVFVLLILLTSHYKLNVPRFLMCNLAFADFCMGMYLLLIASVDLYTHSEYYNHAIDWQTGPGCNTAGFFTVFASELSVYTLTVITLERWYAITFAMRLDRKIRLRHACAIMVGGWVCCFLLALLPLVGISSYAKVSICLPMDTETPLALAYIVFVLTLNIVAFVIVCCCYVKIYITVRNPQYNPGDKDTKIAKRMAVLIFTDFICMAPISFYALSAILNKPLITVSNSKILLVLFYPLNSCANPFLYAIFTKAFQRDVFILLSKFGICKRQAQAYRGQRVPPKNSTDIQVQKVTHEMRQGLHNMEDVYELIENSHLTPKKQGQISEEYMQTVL
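HEK 293 cells stably expressing TSHR and a modified CNG channel, with CNG-only parental cells as counterscreen, were preloaded 60 min at room temperature with membrane potential dye containing 100 uM RO 20-1724. Compound exposure was 30 min, and depolarization was read as fluorescence at 590 nm.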
A488 fluor: compound fluoresces in the A488 spectral region; compound autofluorescence, A488 spectral region, dye equivalency; stronger effect = higher value; max dye equivalency, M; 0.1% of 59,000 active; active = above 10 nM dye equivalent; inconclusive = 1 to 10 nM; inactive = 1 nM or less; about half of its hits are not listed in these tables;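 further: highest value over a series up to 38 µM; compound alone in buffer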
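Compound autofluorescence was read in 100 mM Tris pH 8.0 after 15 min at room temperature, ex 480 nm/em 540 nm. Intensities were converted to A488 dye-equivalent concentration using an on-plate six-point A488 standard curve.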
Numbers without * were called inactive; i = inactive; ? = inconclusive; . = no result given; & = joins results of further samples; [ ] = another dose, or the depositor's remark. Not all compounds are listed. The share of hits here may be higher or lower than overall.

SMILES	AID923	Resorufin autofl	A647 autofl	TSHR ag	A488 fluor
c1cnn(-c2cc(N3CCOCC3)ncn2)c1	0.7%	i	2.08e-08	0.9%	i
CC(=O)c1cc(CN2C(=O)c3ccccc3C2=O)cs1	0.7%	i	2e-08	9.6%	i
C1CCN(c2nc(N3CCCC3)nc(N3CCNCC3)n2)C1	1.5%	i	3.1e-09	4.1%	i
Cc1cc(O)c(C(=O)c2ccccc2C(=O)O)cc1C	3.0%	.	.	21.6%	.
COc1cc(OC)c(C2=NOC(C(=O)Nc3c(C)nn(CC(=O)N4CCCC4)c3C)C2)cc1Cl (stereo not given)	0.9%	i	2.9e-09	13.2%	i
CN(C)C(CNC(=O)Nc1cccc(Cl)c1)c1cccnc1 (stereo not given)	0.1%	i	1.19e-08	4.2%	i
Cc1nc2cc(Cl)ccc2n1CCO	-1.2%	i	1e-09	7.2%	i
C/C(N)=C(/C#N)C(=O)CSc1nnc(NC(C)C)s1	0.6%	i	1e-09	-2.8%	i
COc1cccc(-c2ccc3ncnc(NCc4ccccc4)c3c2)c1	1.2%	i	3.88e-08	?	i
Cc1ccc(-c2noc(CCC(=O)NCC3CCN(Cc4cccc(C)c4)CC3)n2)cc1	-0.1%	i	1.32e-08	?	i
CCOC(=O)c1c(C)n(C)c2ccc(OCC(O)CN3CCCCCC3)cc12 (stereo not given)	-0.8%	.	.	-4.7%	.
COc1cccc(C2CC(C(F)(F)F)n3nc(C(=O)NCc4cccnc4)cc3N2)c1 (stereo not given)	-1.7%	i	4.68e-08	-2.3%	i
COc1ccc(OC)c(NC(=O)C2=C(C)Nc3ncnn3C2c2cccs2)c1 (stereo not given)	-0.9%	i	2.74e-08	-1.0%	i
Cc1ccc(S(=O)(=O)NC(=O)Nn2c(C)nnc2C)cc1	2.8%	.	.	9.6%	.
O=C1C[C@@H](O)[C@@H](O)[C@H]2[C@@H]3C(=O)N(c4cccc(Oc5ccccc5)c4)C(=O)[C@@H]3CC[C@H]12	-1.5%&0.0%[11.5 µM]	.	.	2.9%&20.2%[11.4 µM]	.
CCOc1ccc(C2CC(c3ccccc3C)n3ncnc3N2)cc1 (stereo not given)	0.9%	.	.	?	.
Cc1nccn1C[C@@H]1CCc2c(c3ccccc3n2C)C1=O	-3.2%[25.7 µM]	i	2e-08	4.4%[25.6 µM]	i
CCC(=O)Nc1c(C(=O)Nc2cccc(OC)c2)oc2ccccc12	0.6%	i	1.82e-08	?	i
CCC(=O)Nc1ccc(C(=O)Nc2cccnc2)cc1	-0.9%	i	1e-09	-1.0%	i
Cc1nc(SCC(=O)N2CCN(c3ccccc3)CC2)c2oc3ccccc3c2n1	6.2%	i	2.83e-08	5.7%	i
O=C(c1ccco1)N1CCN(/C(=N/S(=O)(=O)c2cccs2)c2ccccc2Cl)CC1	-0.5%	i	4.95e-08	-2.4%	i
Nc1ncn([C@H]2O[C@@H](CO)[C@@H](O)[C@@H]2O)c(=O)n1	0.4%[25.7 µM]	i	1.95e-08	33.8%[25.6 µM]	i
O=C1CCC(=O)N1CCCCCc1nc(-c2ccccc2)no1	-0.5%	i	2.4e-09	9.9%	i
O=C(CCC1CCCC1)N1CCN(C(=O)c2cccnc2)CC1	0.5%	i	1.64e-08	5.3%	i

The list goes on; it opens with the two that closed the last part.
SMILES	AID923	Resorufin autofl	A647 autofl	TSHR ag	A488 fluor
O=C1CCC(=O)N1CCCCCc1nc(-c2ccccc2)no1	-0.5%	i	2.4e-09	9.9%	i
O=C(CCC1CCCC1)N1CCN(C(=O)c2cccnc2)CC1	0.5%	i	1.64e-08	5.3%	i
COC(=O)CN(c1ccccc1F)S(=O)(=O)c1ccccc1	-2.3%	.	.	15.0%[11.4 µM]	.
CN(C)c1ccnc(-c2ccccc2C(F)(F)F)n1	-1.9%	i	4.15e-08	?	i
CC(C)(C)OC(=O)N1CCC[C@H]1c1nnc(SC/C=C/c2ccccc2)o1	0.4%	i	4.1e-09	?	i
CCn1c(SCC(=O)N2CCCc3ccccc32)nc2c1c(=O)n(C)c(=O)n2C	-0.7%	i	8.2e-09	-8.1%	i
Cn1c(SCC(=O)Nc2nc3c(s2)CCCC3)nnc1-c1ccccc1	-1.1%	i	1e-09	1.3%[11.4 µM]	i
CCOC(=O)c1c(NC(=O)CSc2n[nH]c(N)n2)sc(CC)c1C	-1.2%	i	3.5e-09	-3.7%[11.4 µM]	i
CC1OC(Nc2ccc(OC(F)(F)F)cc2)C(O)C(O)C1O (stereo not given)	0.1%	i	1.46e-08	-4.5%	i
CN=C1N[C@H](c2ccccc2)N(c2ccccc2)S1	0.6%	.	.	12.6%	.
CN1CCN(S(=O)(=O)c2ccc(Sc3nnc(-c4cccs4)n3-c3ccccc3)nc2)CC1	0.1%	i	1e-09	?	i
Cc1ccc(C(=O)NCC2CCCO2)cc1N1CCCC1=O (stereo not given)	-0.9%	i	2.59e-08	-0.5%[11.4 µM]	i
CCCn1c(N2CCN(CC(=O)Nc3ccc4c(c3)OCCO4)CC2)nc2ccccc21	-2.4%	i	1e-09	?	i
C/C(=C\C(=O)c1ccncc1)Nc1ccccc1O	-0.7%	.	.	?	.
O=C(/C=N/O)NCC1CCNCC1	-0.1%	i	2.96e-08	?	i
CN(C)S(=O)(=O)c1ccc(N2CCN(S(=O)(=O)c3ccc(F)cc3)CC2)c(Cl)c1	0.4%	i	1.49e-08	3.4%	i
COc1ccc(S(=O)(=O)N2CCSC2c2ccc(N)cc2)cc1 (stereo not given)	-0.1%	i	8.1e-09	11.8%	i
COc1ccc2nc(SCC(=O)Nc3ccccc3C#N)[nH]c2c1	0.5%	i	2.09e-08	6.0%	i
Cc1cc(S(=O)(=O)NC2CCCCC2)ccc1OCC(=O)NCc1ccccn1	-0.9%	i	3.9e-09	-10.0%	i
CC(C)CCOc1ccc(C2(C)NC(=O)N(CN3CCOCC3)C2=O)cc1 (stereo not given)	1.2%	i	4.51e-08	?	i
CCOC(=O)C1=C(C)Nc2nnnn2C1c1ccc(OC)c(Br)c1 (stereo not given)	-1.9%	.	.	?	.
Cc1nc2ccccc2c2oc(C(=O)N3CCc4ccccc4C3)cc12	2.4%	.	.	?	.
O=C(O)CSC1CC(=O)N(c2ccc(Cl)c(Cl)c2)C1=O (stereo not given)	0.7%	i	1e-09	-0.9%	i
COc1cccc([C@@H]2Oc3ccc(OC)cc3/C(=N/O[C@@H](C)c3cn([C@H]4COC[C@H]4O)nn3)[C@@H]2O)c1	-0.2%[11.5 µM]	.	.	13.0%[11.4 µM]	.
C/C(N)=C(/C#N)C(=O)COC(=O)CSc1ccccc1	-0.6%	i	2.21e-08	-2.8%	i
CCN1/C(=C(\O)c2ccccc2)C(=O)c2ccccc2S1(=O)=O	-1.1%	i	1e-09	2.8%	i
CCOC(=O)N1CCC(N(C(=O)Nc2cccc(OC)c2)C(C)CC)CC1 (stereo not given)	-0.6%	i	1e-09	9.4%	i
Cc1ccc(-c2nnn(CC(=O)N(CC(=O)NC(C)C)c3cnc4ccccc4c3)n2)o1	5.2%	i	1e-09	7.7%	i
Cc1ccccc1-n1c(N)cc(=O)[nH]c1=S	-1.1%	i	2.9e-09	29.0%	i
O=C(NCc1nc(-c2ccccc2)no1)c1ccc(Br)o1	0.1%	i	1e-09	14.3%	i
Clc1ccc(NCc2nnc3n2CCCCC3)cc1	-0.2%	i	4.07e-08	-9.0%	i
Cc1ccc(-c2nnc(OCCN3CCOCC3)c3ccccc23)cc1	.	i	4.81e-08	.	i
FC(F)(F)c1ccc(N2CCN(c3ncnc4c3nnn4Cc3ccccc3)CC2)nc1	-0.6%	i	8.4e-09	?	i
CC(=O)NC(CCS(C)(=O)=O)C(=O)Nc1cc(C)on1 (stereo not given)	-3.0%	.	.	?	.
CC(C)n1c(N2CCN(C(=O)c3cccs3)CC2)nc2ccccc21	-1.0%	i	1e-09	20.0%	i
COc1cccc2c1OC1(C)CC2NC(=O)N1c1cccc(C(=O)Nc2ccc3c(c2)OCCO3)c1 (stereo not given)	1.4%	i	1e-09	.	i
CCCCNc1ncnc2c1cnn2-c1ccccc1	1.7%	.	.	?	.
COC(=O)C1=C(C)N(C)C(=O)NC1c1ccccc1 (stereo not given)	-1.2%	i	2.7e-09	7.1%	i
CCn1c(CNC(=O)COc2c(C)cccc2C)nnc1SCC(=O)Nc1nccs1	-1.6%	i	1e-09	-4.8%	i
CC(C)(C)C(=O)C(Oc1cccc2nonc12)n1cncn1 (stereo not given)	1.3%	i	9.9e-09	-1.9%	i
COc1ccc(OCC(=O)N2CCN(C(=O)Cc3ccccc3)CC2)cc1	-1.2%	i	1.91e-08	0.4%	i
Cc1nc(SCc2nnc(-c3ccc(Cl)cc3)o2)c2c3c(sc2n1)CCC3	-0.3%	i	7.3e-09	9.1%	i
O=C1Nc2ccc(I)cc2/C1=C/c1cc(Br)c(O)c(Br)c1	-2.6%	i	5.13e-08	?	i
Cc1cc(C)cc(NC(=O)N2CCC(NC(=O)c3ccc(F)cc3)CC2)c1	-0.6%	i	2.98e-08	?	i
O=C1c2ccccc2S(=O)(=O)N1CCOc1ccccc1	0.0%	i	7.1e-09	-1.7%	i
CC1CCN(S(=O)(=O)c2cccc(C(=O)NCc3cccs3)c2)CC1	0.1%	i	1e-09	17.0%	i
C=CCNCc1cccn1-c1sc2c(c1C#N)CCCC2	-0.8%	.	.	?	.
CCOC(=O)c1cnc2nc[nH]n2c1=O	-0.8%	.	.	2.7%	.
Cc1ccc2c(c1)-c1c(cnn1CC(=O)N1CCCN(Cc3ccccc3F)C1)CO2	-1.0%	.	.	11.6%	.
Cc1cc(N2C(=O)C(=O)/C(=C(/O)c3ccccc3)C2c2cccs2)no1 (stereo not given)	.	i	1e-09	.	i

Profiles as entered above.
COc1ccc(OCC(=O)N2CCN(C(=O)Cc3ccccc3)CC2)cc1 across the screens: AID923 = -1.2%; Resorufin autofl = i; A647 autofl = 1.91e-08; TSHR ag = 0.4%; A488 fluor = i
O=C1c2ccccc2S(=O)(=O)N1CCOc1ccccc1 across the screens: AID923 = 0.0%; Resorufin autofl = i; A647 autofl = 7.1e-09; TSHR ag = -1.7%; A488 fluor = i

Carrying on:
SMILES	AID923	Resorufin autofl	A647 autofl	TSHR ag	A488 fluor
O=C(CSc1nnc(-c2ccco2)o1)N1CCOCC1	0.6%	i	2.69e-08	-2.9%	i
CCCn1c(C)nc2c(NCc3ccccc3)nc(C)nc21	-0.8%	.	.	11.2%	.
Cc1ccc(S(=O)(=O)NCCNC(=O)N2CCOCC2)cc1	1.3%	i	6.89e-08	-1.4%	i
COc1ccccc1-c1nc(NCc2cccnc2)c2ccccc2n1	2.3%	i	1.83e-08	?	i
CCN(CCCNC(=O)c1[nH]c(C)c(C(C)=O)c1C)c1cccc(C)c1	-1.8%	i	2.2e-09	-5.2%	i
O=C(O)c1cccc(S(=O)(=O)N2CCOCC2)c1	-0.8%	i	1e-09	-8.3%	i
Cc1nc2c(=O)oc3ccccc3c2n1-c1ccccc1	-0.1%	.	.	11.6%	.
c1ccc(-c2nc(N3CCOCC3)c3ccccc3n2)nc1	-1.0%	i	3.48e-08	0.1%	i
CC1(C)CC(=O)N(CC(=O)NC2CCCC2)c2ccccc2S1(=O)=O	-0.5%	.	.	12.6%	.
C=CCN1C(=O)CN=C1Nc1ccc(OC)cc1OC	0.5%	i	1.34e-08	1.3%	i
COc1ccc(NC(=O)N2CCC3(CC2)CCN(C(=O)c2csnn2)CC3)cc1	-0.3%	i	3.6e-09	5.0%	i
CN1CCN(c2ncnc3ccc(-c4ccc(C(=O)N(C)C)cc4)cc23)CC1	1.2%	i	1e-09	5.3%	i
COc1ccc(N2C(=O)CC(N3CCN(C4CCc5ccccc5C4)CC3)C2=O)cc1 (stereo not given)	-0.7%	i	2.33e-08	6.5%	i
